Compound activity from PubChem.
CBX7 inh: CBX7 chromodomain binding inhibitors, primary screen, biochemical, AlphaScreen; Chromobox protein homolog 7 (Homo sapiens), O95931; AlphaScreen His6-CBX7 / biotin-H3K27me3 peptide binding; hits give low values; normalised signal (fraction of DMSO) (no concentration beside the values); actives 1.1% (n = 66,000); in the data active = normalised signal below about 0.5;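 note: 100 nL library stock added to about 20 µL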
Target sequence (O95931 whole entry, looked up): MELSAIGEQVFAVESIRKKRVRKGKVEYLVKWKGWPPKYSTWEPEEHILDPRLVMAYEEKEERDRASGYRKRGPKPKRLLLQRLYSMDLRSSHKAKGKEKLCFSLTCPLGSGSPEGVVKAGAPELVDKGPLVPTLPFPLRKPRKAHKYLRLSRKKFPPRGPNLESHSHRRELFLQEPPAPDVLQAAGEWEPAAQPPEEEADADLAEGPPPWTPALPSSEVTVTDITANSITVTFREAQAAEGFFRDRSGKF
CBX7 inh z-score: also measured in CBX7 inh; calls as there; z-score; measured here: z-score of CBX7 signal; some inactives read as strong as hits; reference of the scale not given here;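 same signal on another scale; lower means less binding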
* marks the source's active call; other numbers are inactive results; & = joins results of further samples.

Values run as follows: CBX7 inh, CBX7 inh z-score
> c1ccc2[nH]c(-c3c[nH]c4ccccc34)nc2c1
    0.86, -6.1
> COc1cccc(CNC(=O)C2CCN(S(=O)(=O)c3c(C)noc3C)CC2)c1
    1, 0.53
> O=C(CCCN1C(=O)c2cccnc2C1=O)Nc1cc(F)ccc1F
    0.81, -3.1
> CCN(CC)c1cc(C)c2cc(NC(=O)COC)ccc2n1
    0.85, -1.7
> CCCCNC(=O)C1CCN(Cc2nc(-c3ccc(CC)cc3)oc2C)CC1
    1, 0.46
> Cc1cc(C)cc(-n2c(C)nc3cc(C(=O)O)ccc32)c1
    1.1, 1.4
> Cc1noc(/C=C/c2cccs2)c1S(=O)(=O)N1CCC(C(=O)N2CCCCCC2)CC1
    0.83, -0.35
> CCN1CCN(c2oc(COc3ccc(C)cc3)nc2C#N)CC1
    0.88, -0.76
> COc1ccc(C(=O)Nc2cccc(-c3nc4ncccc4o3)c2)cc1Cl
    0.82, -3.2
> O=S(=O)(c1ccc(-c2csc(Nc3ccc(F)cc3)n2)cc1)N1CCCC1
    0.96, -0.48
> COc1ccc(OC)c(N2C(=O)CC(Cc3cc(C)cc(C)c3)C2=O)c1 (centres undefined)
    0.81, -2.3
> CN(C)CCNC(=O)C1CCC(=O)N1Cc1ccccc1Cl (centres undefined)
    1, -0.034
> Cc1c(C(=O)NCCN(C)C)sc2nc(-c3ccc(F)cc3)cn12
    0.99, -0.28
> COc1ccc(CN2CCN(Cc3cc(OC)c(OC)c(OC)c3)CC2)c(OC)c1
    1, 0.24
> CCOc1ccc(Nc2cc(C(=O)NCCCN(C)C3CCCCC3)c3ccccc3n2)cc1
    0.85, -4.2
> O=C(Nc1c(C(=O)Nc2cccc(F)c2)oc2ccccc12)c1ccc(F)c(F)c1
    1, 0.29
> COc1ccc(CCNC(=O)[C@H](CSCc2ccccc2)N2Cc3ccccc3C2=O)cc1OC
    0.9, -2.3
> CCC1CCCCN1C(=O)Cn1c(SCc2ccccc2F)nc2ccncc21 (centres undefined)
    1, -0.12
> CCOCCCNC(=O)C1CCCN(Cc2nc(-c3ccc(Cl)cc3)oc2C)C1 (centres undefined)
    1, 1.1
> Cc1cccc(C(=O)Nc2ccc(Cl)c(-c3nc4ccccc4[nH]3)c2)c1
    1&0.95, 1&-0.84

Copied from the results shown for reference:
Values run as follows: CBX7 inh, CBX7 inh z-score
> COc1ccc(CN2CCN(Cc3cc(OC)c(OC)c(OC)c3)CC2)c(OC)c1
    1, 0.24
> CCOc1ccc(Nc2cc(C(=O)NCCCN(C)C3CCCCC3)c3ccccc3n2)cc1
    0.85, -4.2
> O=C(Nc1c(C(=O)Nc2cccc(F)c2)oc2ccccc12)c1ccc(F)c(F)c1
    1, 0.29
> COc1ccc(CCNC(=O)[C@H](CSCc2ccccc2)N2Cc3ccccc3C2=O)cc1OC
    0.9, -2.3
> CCC1CCCCN1C(=O)Cn1c(SCc2ccccc2F)nc2ccncc21 (centres undefined)
    1, -0.12
> CCOCCCNC(=O)C1CCCN(Cc2nc(-c3ccc(Cl)cc3)oc2C)C1 (centres undefined)
    1, 1.1
> Cc1cccc(C(=O)Nc2ccc(Cl)c(-c3nc4ccccc4[nH]3)c2)c1
    1&0.95, 1&-0.84

Other structures.
Values run as follows: CBX7 inh, CBX7 inh z-score
> Cc1cc(C)c(Cc2c(C)nc3c(C(=O)NCCC(C)C)cnn3c2C)c(C)c1
    0.99, -0.25
> COc1ccc(N2CCN(Cc3nc4c(c(=O)[nH]c(=O)n4C)n3CCN3CCOCC3)CC2)cc1
    1, 1.1
> CCOC(=O)c1sc(NC(=O)c2ccc(OC)cc2)nc1-c1ccccc1
    0.83, -1.8
> CN(CCCNC(=O)Cn1nc(-c2ccccc2)ccc1=O)Cc1ccccc1
    1, 0.88
> COc1cc(OC)cc(C(=O)Nc2c3c(nn2-c2ccc(F)cc2)CSC3)c1
    1.1, 2.3
> Cc1nn(Cc2ccc(F)cc2)c(C)c1NC(=O)c1noc2c1CCCCC2
    1.1, 0.24
> COC(=O)COc1ccc(-c2nnc(Nc3ccc(O)cc3)c3ccccc23)cc1
    0.79, -2.4
> c1ccc(CSc2nnc3c(n2)[nH]c2ccccc23)cc1
    1.1, 0.71
> O=C(CN1C(=O)COc2ccccc21)N1CCN(c2ccc(N3CCOCC3)nn2)CC1
    1, -0.048
> CCCCOc1ccc(C(=O)Nc2cc(C)ccn2)cc1
    1.1, 1.4
> O=C1CN(C(=O)CC2CCCCC2)C(c2ccc(F)cc2)c2cc(Br)ccc2N1 (centres undefined)
    0.83, -3.4
> CCN(CC)S(=O)(=O)c1ccc2oc(C(=O)NCCN3CCOCC3)c(C)c2c1
    1.3, 2.8
> CCc1c2c(nn1-c1cc(Cl)ccc1OC)CC(c1ccccc1)CC2=O (centres undefined)
    0.99, -0.2
> C(#Cc1ccc2noc(-c3ccccc3)c2c1)c1ccccc1
    1.3, 11
> CC(C)(C)c1ccc2c(c1)N(CC(=O)N1CCN(Cc3ccccc3)CC1)C(=O)CO2
    0.98, -0.48
> COc1ccc(NC(=O)CSc2nc3nc(C)c(Cc4ccccc4)c(C)n3n2)cc1OC
    0.86, -1.6
> Nc1nc2c3ccccc3nc(-c3ccccc3)n2n1
    1.2, 2
> CC1(C)CC(=O)c2cc(C(=O)Nc3ccc(Cl)cn3)c(=O)n(-c3ccc(Cl)cc3)c2C1
    1.1, 0.31
> O=C(NCCCN1CCCCCC1)C1C2C=CC3(CN(Cc4cccs4)C(=O)C13)O2 (centres undefined)
    2.2, 19
> Cc1cc(N2CCN(c3ccc(F)cc3)CC2)n2nc(C)nc2n1
    1, 0.43
> CCCCNC(=O)CN1CCN(Cc2cccc(Cl)c2)C1=O
    1.1, 0.98
> O=C(Nc1ccc(S(=O)(=O)N2CCCCC2)cc1)[C@H](CSCc1ccccc1)N1Cc2ccccc2C1=O
    0.91, -2.6
> COc1ccc(NC(=O)N(C2CCCCC2)C2CCN(C(C)C)CC2)c(OC)c1
    0.97, -0.54
> COc1ccc(-c2noc(COc3ccc(C(C)C)cc3Br)n2)cc1OC
    0.98, -0.2
> O=c1cc(N2CCN(Cc3ccccc3)CC2)[nH]c(=O)n1-c1cccc(C(F)(F)F)c1
    0.97, -0.54
> COc1ccc2c(c1)CCc1c(C(=O)NCc3cccnc3)noc1-2
    1, 0.14
> O=C1Nc2cc(C(=O)N3CCC(Cc4ccccc4)CC3)ccc2Nc2ccccc21
    0.66, -2.8
> O=C(Cn1c(-c2ccccn2)nc2ccccc21)NCCc1ccccc1
    1, 0.49
> CN(C)C(=O)c1ccc(-c2nnc(NCc3ccccc3)c3ccccc23)cc1
    1, 0.13
> O=C(CN1CCN(Cc2ccc(F)cc2)C1=O)NCc1ccccc1
    1.1, 0.72
> Cc1csc(NC(=O)c2ccc(Br)cc2)n1
    0.98, -0.061
> O=C(NC1CCCCC1)c1ccc2c(c1)N(Cc1cccc(F)c1)C(=O)c1ccccc1S2
    0.96, -1.1
> Cc1cccc(C(=O)Nc2c(-c3ccc(F)cc3)nc3ccccn23)c1
    1, 1.3
> CCC(C)NC(=O)c1c[nH]c2ccc(S(=O)(=O)N(C)c3ccccc3C)cc2c1=O (centres undefined)
    1.2, 2.1
> Cc1ccc(Nc2cc(-n3nc(C)cc3-c3ccccc3)ncn2)cc1
    0.8, -1.3
> CC1CCc2c(C(=O)NCCCN3CCOCC3)csc2C1 (centres undefined)
    1, 1.9
> COc1cccc(N2CCN(C(=O)c3ccc4c(c3)NC(=O)c3ccccc3S4)CC2)c1
    0.83, -4.7
> Cc1nccc2[nH]c(=O)c(C(=O)NCc3ccccc3)cc12
    1.1, 0.72
> CC(=O)Nc1ccc(-c2cn3ccsc3n2)cc1
    0.8, -2.1
> O=C(Cc1ccc(Cl)cc1)Nc1cccc(-c2nc3ncccc3o2)c1
    1, 0.26

The closing two records of the part above are carried over, then new ones follow:
SMILES | CBX7 inh | CBX7 inh z-score
CC(=O)Nc1ccc(-c2cn3ccsc3n2)cc1 | 0.8 | -2.1
O=C(Cc1ccc(Cl)cc1)Nc1cccc(-c2nc3ncccc3o2)c1 | 1 | 0.26
Cc1cccn2cc(-c3ccc(S(=O)(=O)N4CCCCC4)cc3)nc12 | 1.2 | 0.63
COc1ccc(NC(=O)CN2C(=O)CSc3nc(C)cc(C)c32)cc1OC | 1.1 | 0.32
O=S(=O)(NC1CCN(Cc2ccccc2)CC1)c1cnc[nH]1 | 0.98 | -0.032
CC(C)c1ccc(NC(=O)C(c2ccc3c(c2)OCO3)N(C)c2ccccc2)cc1 (centres undefined) | 1 | 0.11
COc1cccc(NC(=O)CSc2nc3nc(C)c(Cc4ccccc4C)c(C)n3n2)c1 | 1.2 | 1.9
Cn1c(C(=O)N2CCC(C(=O)NCc3cccnc3)CC2)cc2sccc21 | 1.1 | 1.4
Cc1ccc(-c2noc(CCC(=O)Nc3cccc(Cl)c3)n2)cc1 | 1 | 0.024
COc1ccc(N2CCN(CCCNC(=O)Nc3ccc(F)cc3)CC2)cc1 | 1.4 | 3
Cc1cc(Cl)ccc1Nc1nc(-c2ccccc2F)nc2ccccc12 | 0.69 | -0.41
O=C(CSc1oc(-c2ccc(F)cc2)nc1S(=O)(=O)c1ccc(Cl)cc1)NCC1CCCO1 (centres undefined) | 0.96 | -0.32
O=[N+]([O-])c1cccc(CN2CCN(Cc3cccnc3)CC2)c1 | 0.82 | -2.1
O=C(O)c1ccc(CN2C(=O)c3ccc(S(=O)(=O)c4ccc(C(=O)O)cc4)cc3C2=O)cc1 | 0.95 | -1.9
Cc1cc(N2CCCCC2)nc2ccc(NC(=O)CCC(=O)N3CCC(Cc4ccccc4)CC3)cc12 | 0.53 | -20
CNS(=O)(=O)c1cc(-c2nnc(Nc3cc(C)ccc3C)c3ccccc23)ccc1C | 0.68 | -6
O=S(=O)(c1ccccc1)c1nc(-c2ccccc2)oc1NCc1ccco1 | 0.69 | -1.3
CCC(C)NC(=O)CN1C(=O)CC(C)(C)S(=O)(=O)c2ccccc21 (centres undefined) | 1 | 0.41
Oc1ccc(-c2csc(-c3c[nH]c4ccccc34)n2)c(O)c1 | 0.84 | -1.8
Cc1ccc(-c2nnc(N3CCOCC3)c3ccccc23)cc1S(=O)(=O)N1CCCCC1 | 1.1 | 0.16
COc1ccc(NC(=O)c2cc(C3CC3)on2)cc1 | 1 | 1.6
O=C(NCc1cccnc1)c1cc2nc(-c3ccc(Cl)cc3)cc(C(F)(F)F)n2n1 | 1.1 | 1.3
N#Cc1nc(COc2ccccc2Cl)oc1N1CCC(Cc2ccccc2)CC1 | 0.77 | -10
CC1CC(C)CN(c2nnc(NC(=O)c3csc4c3CCCC4)s2)C1 (centres undefined) | 1.1 | 1.3
COc1ccc(-c2ncnn2-c2ccc(Br)cc2F)cc1OC | 0.92 | -1.6
CCOC(=O)c1cnc2ccc(Cl)cc2c1Nc1ccc(C(=O)O)cc1 | 1.1 | 1.4
COc1ccc(-c2cc(C(=O)N3CC4(C)CC3CC(C)(C)C4)no2)cc1OC (centres undefined) | 1.2 | 1.4
CCOc1ccc(NC(=O)CSc2nc(NC3CCCCC3)c3ccccc3n2)cc1 | 0.97 | -1.5
Cc1ccc(NC(=O)c2ccc(CNc3c(N4CCC(C)CC4)c(=O)c3=O)cc2)cc1F | 1 | 0.62
Cc1ccc(S(=O)(=O)c2cn(CC(=O)Nc3ccc(C)c(Cl)c3)c3ccc(F)cc3c2=O)cc1 | 0.91 | -1.2
CCn1c(CCNC(=O)c2ccc(Cl)cc2)nc2ccccc21 | 0.96 | -0.53
Cc1nnc2nc(-c3cccc(Cl)c3Cl)[nH]n12 | 1 | -0.039
CC(CCc1ccccc1)NC(=O)c1ccc2nc(N3CCOCC3)sc2c1 (centres undefined) | 1 | 0.69
CCCC(=O)Nc1c(C(=O)c2ccc(Cl)cc2)oc2ccccc12 | 1.3 | 1.2
O=C(c1ccc2c(=O)n3c(nc2c1)CCCCC3)N1CCN(c2ccccc2F)CC1 | 0.97 | -0.99
CC1CCC(NC(=O)C2CCN(S(=O)(=O)c3ccc4c(c3)CCC(=O)N4)CC2)CC1 (centres undefined) | 0.97 | -0.75
CN(C)c1ccc(-c2nc3cnccn3c2Nc2ccc3c(c2)OCO3)cc1 | 0.89 | -1.1
COc1cc(C2C(C(=O)Nc3cccc(C)n3)=C(C)NC3=C2C(=O)CCC3)cc(OC)c1OC (centres undefined) | 1.1 | 1.2
CCOCCCNC(=O)C1CCN(c2nn3c(=O)cc(C)nc3s2)CC1 | 1.2 | 1.7
O=S(=O)(c1ccccc1)c1nc(-c2ccccc2Cl)oc1N1CCOCC1 | 0.94 | -0.72
Cc1oc(-c2ccc(Cl)cc2)nc1CN1CCCC(C(=O)NCc2ccc(F)cc2)C1 (centres undefined) | 1 | 0.37
Cc1nc2ccc(S(=O)(=O)NC(C(=O)N3CCCCC3)C(C)C)cc2s1 (centres undefined) | 1 | 0.24
Cc1cccc(-n2c(Cc3cc(=O)[nH]c(=O)[nH]3)nnc2SCC(=O)Nc2ccc(Cl)cc2)c1 | 0.97 | -0.93
COc1ccc(-c2nn(-c3ccccc3)cc2C(=O)N2CCOCC2)cc1OC | 1.1 | 0.81
CC(=O)Nc1nonc1NC(=O)CSc1ncn[nH]1 | 1 | 0.69
Cc1ccc(S(=O)(=O)N2CCC(C(=O)NCCc3ccccc3)CC2)cc1 | 1 | 2
O=C(Nc1ccc(C(F)(F)F)cc1)C(NS(=O)(=O)c1cccs1)c1ccccc1 (centres undefined) | 0.84 | -0.15
COc1cc(-c2nc(-c3ccccc3)c(-c3cccs3)[nH]2)cc(OC)c1O | 0.48* | -1.1*
O=C(c1ccc(Cl)cc1)N1CCN(c2nc(-c3ccccc3)c3ccccc3n2)CC1 | 1.6 | 5.5
COc1cc(OC)cc(-c2nc3nc(C)c(CCC(=O)NCc4ccc(F)cc4)c(C)n3n2)c1 | 1 | 0.057
COc1ccccc1NC(=O)c1cnn(-c2ccccc2)c1C1CCNCC1 | 1.1 | 1.3
COc1ccc(N2C(=O)c3ccc(Oc4ccc(NC(C)=O)cc4)cc3C2=O)cc1 | 1.1 | 0.62
Cc1ccccc1OC1C(=O)N(c2cccc(C(F)(F)F)c2)C1c1ccc2c(c1)OCO2 (centres undefined) | 0.97 | -0.23

This is a subset (hit frequency here may not be typical).
